# ALR H2O2 inh – inhibitors of human sulfhydryl oxidase ALR | P55789 | purified ALR, DTT oxidation, H2O2 HRP-luminol luminescence | inhibition, % (concentration not given with the values) | 3.8% of 290,000 active;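 active = mean and each replicate at 75% or more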;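 also: stock transfer was 7.5 nL into about 7.5 µL; 0% = neutral wells and 100% = wells with inactivated enzyme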
# Target sequence (P55789 whole entry, looked up): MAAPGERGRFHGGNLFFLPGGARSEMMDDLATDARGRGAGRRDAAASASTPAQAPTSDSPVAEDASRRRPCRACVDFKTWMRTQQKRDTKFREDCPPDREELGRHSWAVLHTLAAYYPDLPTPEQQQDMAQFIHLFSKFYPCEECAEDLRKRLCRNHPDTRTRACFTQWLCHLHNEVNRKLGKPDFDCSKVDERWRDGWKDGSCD
# UCH37 inh – human UCH37 deubiquitinating enzyme inhibition; Q9Y5K5; purified proteasome/UCH37, Ub-AMC cleavage fluorescence; inhibition, % (concentration not given with the values); 0.33% of 330,000 active;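 active = mean of two replicates above 20%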;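 also: 0% = compound-free wells with enzyme and 100% = wells lacking proteasome; stock transfer was 100 nL into about 20 µL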
# Target sequence (Q9Y5K5 whole entry, looked up): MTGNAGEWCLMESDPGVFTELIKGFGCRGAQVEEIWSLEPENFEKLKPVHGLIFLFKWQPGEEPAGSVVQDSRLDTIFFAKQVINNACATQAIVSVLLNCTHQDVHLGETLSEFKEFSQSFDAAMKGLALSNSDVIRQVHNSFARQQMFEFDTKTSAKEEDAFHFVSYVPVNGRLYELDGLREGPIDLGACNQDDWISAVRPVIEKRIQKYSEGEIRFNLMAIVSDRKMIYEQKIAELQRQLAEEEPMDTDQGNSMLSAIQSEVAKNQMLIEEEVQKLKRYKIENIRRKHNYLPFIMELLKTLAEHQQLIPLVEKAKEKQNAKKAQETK
#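 Reagent: Ub-AMC substrate; assay system: Proteasome-associated human UCH37 deubiquitinase; controls: no-proteasome and no-compound wells; read-out: % inhibition of Ub-AMC cleavage fluorescence; timing: 30 min preincubation with enzyme, 25 min cleavage at room temperature; signal: AMC fluorescence from Ub-AMC cleavage, excitation 355 nm, emission 460 nm; buffer or medium: Tris-HCl pH 7.4 plus ovalbumin, ATP-MgCl2, DTT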
# E coli growth – inhibitors of Escherichia coli growth; OD600, 23 h; hits give low values; OD600 absorbance (concentration not given with the values); 0.21% of 330,000 active;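 active = OD600 absorbance below the run mean of sample wells minus 3.6 SD, in any replicate, cut at about 0.56 in these data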;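 also: stock transfer was 300 nL into about 60 µL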
# FGF22 binding – shifts melting point of recombinant human FGF22 | recombinant FGF22 thermal shift, SYPRO orange fluorescence; percent of sucrose octasulfate shift, DMSO zero | calls only at 9.99 µM | 1.5% of 340,000 active | AID 651658;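 active = melting point raised past a set limit in the mean and every replicate; three in four hits are not shown here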
# Beta2AR agonist – activates human beta-2 adrenergic receptor causing internalization | Am2.2-beta2AR cells, FAP receptor internalization, flow cytometry; reference of the scale not given here | 0.43% of 340,000 active | response, % (no concentration beside the values) | P07550 | AID 504454;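 active = response above a set limit, near 3 SD of response in nonfluorescent compounds, cut at about 42% in these data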;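 also: stock transfer was 100 nL into about 11 µL; a reference agonist was the positive control; negative values mostly stem from fluorescent compounds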
# LANA-H2A inh – blocks KSHV LANA binding to histone H2A/H2B | Q9QR71 | cell-free LANA-H2A/H2B peptide, fluorescence polarization | inhibition, % (test concentration not listed) | 0.6% of 320,000 active; in the data active = inhibition mostly above about 10%, no sharp cut-off; inactive = mostly below about 6.7%;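 also: stock transfer was 7.5 nL into about 10 µL; 0% = median of vehicle wells and 100% = median of positive control wells; one replicate is shown; the record names a cut of 25% in any replicate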
# HNF4A DNA FP – change in binding of human HNF4 alpha to DNA. HNF4a-FITC DNA binding, fluorescence polarization, 1 h. activity change, % at 10 µM. 0.3% of 360,000 active. AID 1224865; in the data active = activity change above about 30%, passing the limit was not always enough;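 also: controls were the assay level and a saturating level of protein; the project sought stronger binding though the title names inhibitors; some compounds called inactive have numbers as strong as hits; positive values seem to mean higher polarization but the record does not say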
# Target sequence (P41235 whole entry, looked up): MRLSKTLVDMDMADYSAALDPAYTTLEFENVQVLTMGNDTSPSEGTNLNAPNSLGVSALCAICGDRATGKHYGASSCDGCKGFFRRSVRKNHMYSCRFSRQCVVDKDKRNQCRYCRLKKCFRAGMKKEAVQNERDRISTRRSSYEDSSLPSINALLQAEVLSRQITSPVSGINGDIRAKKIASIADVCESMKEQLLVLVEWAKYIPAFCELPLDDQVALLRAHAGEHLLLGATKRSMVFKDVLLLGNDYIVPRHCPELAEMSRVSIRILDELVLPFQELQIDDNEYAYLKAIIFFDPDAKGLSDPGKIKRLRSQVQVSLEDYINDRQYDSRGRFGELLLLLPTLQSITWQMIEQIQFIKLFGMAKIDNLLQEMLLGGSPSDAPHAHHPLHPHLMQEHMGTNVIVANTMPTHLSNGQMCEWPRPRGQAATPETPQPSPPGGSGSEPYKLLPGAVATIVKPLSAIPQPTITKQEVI
# Starred values were filed as active, the others as inactive; i = inactive; · = no result given; + = active, no number. A portion of the library; count on the stated rates, not on these rows.
SMILES,ALR H2O2 inh,UCH37 inh,E coli growth,FGF22 binding,Beta2AR agonist,LANA-H2A inh,HNF4A DNA FP
CCN1/C(=C2\C(=O)N(C)C(=S)N2C)C=Cc2cc(OC)ccc21,9,1.7,0.68,i,11,3.5,-1.3
O=C1C=C(c2ccc(Cl)nc2)C[C@@H](c2ccc3c(c2)OCO3)C1,0,3.1,·,·,-3,11,-0.6
CC(=O)Nc1ccc(NC(=O)[C@@H](NC(=O)c2cccc(C)c2)C(C)C)cc1,1,1.0,0.64,i,4,-6.3,2.1
CCOc1cc(C(N)=O)cc(OCC)c1OCC,-1,2.7,0.67,·,-7,-1.9,-0.1
COc1ccc(CNC(=O)c2ccc(CS(=O)c3ccccc3)o2)cc1 (stereo unspecified),0,1.7,0.68,i,-4,-2.2,2.9
O=C(O)CNC(=O)c1ccc(NC(=O)/C(=C/c2ccccc2)NC(=O)c2ccco2)cc1,6,2.8,0.66,i,3,3.7,-1.4
COc1ccc(C2=NCC(CSc3nnnn3C)S2)cc1 (stereo unspecified),16,-5.3,0.74,·,1,-2.6,0.7
Cc1ccc(OCC(=O)Oc2c(C)cccc2C)cc1,-2,1.4,0.61,i,8,3.1,0.4
CCC(=O)Nc1ccc(C(=O)CSc2nc(N)cc(N)n2)cc1,-40,2.3,0.65,i,-9,0.8,-1.1
CCCCN1C(=O)C(NC(C)=O)c2cc(Br)ccc21 (stereo unspecified),4,1.6,0.69,·,1,-0.9,1.5
CC1(c2nnc(-c3ccncc3)o2)CC(c2cccc(Cl)c2)=NO1 (stereo unspecified),-3,3.1,0.69,i,3,3.9,2.8
O=C(O)c1ncsc1-c1ccccc1,-2,1.6,0.7,i,-2,1.7,-2.5
Nc1nnc(-c2ccc(Cl)cc2)s1,-4,0.6,0.63,·,1,-1.4,-1.9
CCC(C)NC(=O)c1cn(C)c(=O)c2cc(OC)c(OC)cc12 (stereo unspecified),·,-0.1,0.66,·,-7,2.4,2.5
Cc1nc(-c2ccccc2Cl)sc1C(=O)/C=C/N(C)C,·,15,0.62,i,-16,0.1,3.4
Cc1ccc2nc(-c3cccc(-c4cccc(Cl)c4)c3)c(NCc3ccccc3)n2c1,26,·,·,i,17,0.7,-5.4
O=C1CCN(S(=O)(=O)c2ccccc2)N1,·,0.7,0.71,·,4,3.0,-1.4
O=C(O)Cn1c(=O)c(F)cn(C2CCCO2)c1=O (stereo unspecified),-2,6.4,0.68,i,2,-1.1,-0.7
N#CCC(=O)N/N=C/c1ccc(OC2CSC2)cc1,-10,·,·,i,-8,-0.2,0.7
COc1ccc(OCc2nc(N)nc(Nc3ccccc3OC)n2)cc1,44,1.8,0.72,·,3,4.6,1.7
CCOc1ccc(OCC)c(NC(=O)CSc2nc3ccccc3c(=O)n2C)c1,-9,3.4,0.71,·,5,-1.2,1.5
O=C(Nc1ccc(Cl)c(Cl)c1)Nc1ccccc1C(=O)O,98*,-13,0.67,·,-2,1.9,1.5
O=C(COC(=O)c1cccnc1Cl)NCc1ccco1,·,7.4,0.71,·,0,·,-4.3
Cc1noc(C)c1COC(=O)CN(C)S(=O)(=O)c1ccc(Cl)cc1,-2,5.0,0.72,·,2,0.8,-1.9
COC(=O)c1nnn(CC(=O)Nc2cccc(Cl)c2C)c1C(=O)OC,20,0.8,0.69,·,6,6.2,3.5
Cc1ccc(S(=O)(=O)NC(=O)Nc2ccc(OC(F)F)cc2)cc1,-1,6.8,0.69,i,11,-0.2,1.5
Cc1cc(=O)oc2cc(OCC(=O)N3CCc4ccccc4C3)ccc12,-4,-11,0.74,·,-7,-2.9,-0.3
Cc1cccc(OCC(=O)O/N=C(\N)c2ccccn2)c1,-3,·,·,i,-5,0.2,-3.0
OCC[n+]1ccc(/C=C/c2c[nH]c3ccccc23)cc1,52,3.0,·,i,-334,-168,103
CCOc1ccccc1NC(=O)C1CCCN(c2c(CC)c(C)nc3ncnn23)C1 (stereo unspecified),-9,2.1,0.67,i,-8,-0.1,-1.1
CN(C)c1ccc(P(=O)(OCc2ccccc2)C(O)c2cccnc2)cc1 (stereo unspecified),2,2.1,0.71,·,-15,-0.2,4.6
C(=Nc1cccc2c(N=Cc3ccco3)cccc12)c1ccco1,3,·,·,·,10,6.7,-11
Cc1ccc(C)c(S(=O)(=O)N2CCCOC2CNC(=O)C(=O)NCc2ccco2)c1 (stereo unspecified),-13,-0.2,0.65,·,-6,3.5,2.4
Cc1ccccc1CN1CCN(C(=O)c2cccc(F)c2)CC1,1,4.5,0.71,·,2,0.7,3.2
O=C(CCS(=O)(=O)c1cc(Br)cc2c1N(C(=O)C1CC1)CC2)NCC1CCCO1 (stereo unspecified),-1,-1.0,0.75,·,-6,-1.3,-5.2
O=C1Nc2ccc(Br)cc2C1(O)Cc1ccncc1 (stereo unspecified),-18,-6.7,0.76,·,-10,-4.2,-0.9
CCO[C@H]1OC(C(=O)N2CCN(Cc3ccc4c(c3)OCO4)CC2)=C[C@@H](C(C)(C)C)[C@@H]1CCCO,5,0.8,·,i,5,-0.5,2.0
COc1ccc(C)cc1NC(=O)N1CCCc2ccccc21,-1,-1.3,0.67,i,2,7.0,0.6
O=C(CSc1ncnc2c1cnn2-c1cccc(Cl)c1)NCC1CCCO1 (stereo unspecified),-12,-0.7,0.66,i,1,1.9,4.6
Cc1ccc(CCN2CC(C(=O)NCCCOC(C)C)CC2=O)cc1 (stereo unspecified),·,3.2,0.74,i,6,1.4,-1.1
CCCCn1c(SCC(=O)c2ccc(OC)cc2OC)nc2cc(S(N)(=O)=O)ccc21,·,0.5,0.72,·,-10,9.3,-0.4
COc1ccccc1N1CC(C(=O)OCC(=O)Nc2c(C)cccc2C)CC1=O (stereo unspecified),1,·,·,i,13,-2.3,0.2
C[C@H](CO)N1C[C@H](C)[C@@H](CN(C)Cc2ccncc2)Oc2ccc(NC(=O)CCCCCC(=O)Nc3ccccc3N)cc2C1=O,-3,0.8,·,i,-8,3.7,0.5
Oc1ccc(Cl)cc1CNc1cccc2cccnc12,·,7.9,0.59,i,8,2.8,1.5
CN(c1ccccc1C(=O)Nc1ccc(CC#N)cc1)S(=O)(=O)c1ccccc1,-20,2.9,0.64,i,0,1.6,-0.4
Cc1ccc(S(=O)(=O)Nc2ccccc2N(C)S(=O)(=O)c2ccc(C)cc2)cc1,2,1.2,0.69,i,-10,-0.1,3.2
Cc1ccc([N+](=O)[O-])cc1NC(=O)c1ccoc1C,10,3.5,0.68,·,5,2.6,-1.7
COc1ccc(C(=O)NCC(c2ccco2)N2CCCC2)cc1S(=O)(=O)N1CCCCC1C (stereo unspecified),-1,-5.0,0.69,i,-2,3.3,1.5
COc1ccc(S(=O)(=O)N2CCCC(C(=O)N3CCCCCC3)C2)cc1 (stereo unspecified),-4,5.1,0.69,·,-1,-6.7,3.6
CCOP(=O)(c1ccc(N(C)C)cc1)C(O)c1ccncc1 (stereo unspecified),1,1.9,0.67,i,2,2.7,-4.2
CCc1cc(Cn2nc(-c3ccccc3)cc2C(=O)NCc2cccc(Br)c2)on1,-2,·,·,i,-3,-0.4,-4.2
CC(=O)NC1(C(F)(F)F)C(=O)Nc2c1c(=O)[nH]c(=O)n2-c1ccccc1 (stereo unspecified),-1,0.9,0.67,i,2,9.6,1.0
O=C(c1ccccc1)C1N=NCC1c1ccc(Cl)cc1 (stereo unspecified),·,7.0,0.7,i,-3,·,-0.3
CN1C(=S)SC(/[N+]([O-])=C\c2cccs2)C1(C)C (stereo unspecified),-2,4.8,0.69,·,-10,2.9,-1.7
CC1CC(C)CN(CC(O)COCCOc2ccc(Br)cc2)C1 (stereo unspecified),-2,4.3,0.68,·,-10,0.0,-1.5
Cc1ccccc1NC(=O)Nc1cnccn1,-9,-0.2,0.64,i,4,1.5,-1.6
COc1ccc(CCN(Cc2cc3cc(C)cc(C)c3nc2Cl)C(=O)C2CC2)cc1,0,2.6,0.67,·,1,-2.0,3.4
O=C(CCN1C(=O)CSc2ccccc21)Nc1ccc(OC(F)(F)F)cc1,4,2.9,0.69,i,7,+,-4.2
COc1cccc(NC(=O)CNC(=O)c2cccs2)c1,1,-1.1,0.67,·,-3,-17,-1.4
COc1ccc(CNC(=O)CN2C(=O)NC3(CCCCCC3)C2=O)cc1,-1,0.5,0.72,i,-7,1.0,-1.1

# Carrying on.
SMILES,ALR H2O2 inh,UCH37 inh,E coli growth,FGF22 binding,Beta2AR agonist,LANA-H2A inh,HNF4A DNA FP
Cn1ncc2c(Nc3ccccc3Br)ncnc21,-7,5.3,0.73,·,0,-8.6,5.2
COc1ccc(NC(=O)CS(=O)c2ccc(Br)cc2)cc1 (stereo unspecified),-8,4.8,0.73,i,-2,1.4,-1.5
O=C(O)CCn1c(CO)nc2ccccc21,-4,4.2,0.68,·,-1,-2.0,-4.2
COc1ccc(Br)cc1CNC(=O)CCCc1cn(C)c2ccccc12,-5,3.3,0.78,i,-7,-3.9,5.8
N#C/C(=C\c1ccc(O)c(O)c1)C(=O)N1CCc2ccccc21,99*,0.4,·,i,-3,-0.1,2.2
O=C(Nc1cccnc1)c1ccc(Br)c(S(=O)(=O)N2CCCC2)c1,-8,4.5,0.7,i,-2,3.1,-0.1
CCN1C(=O)[C@H]2[C@@H](c3ccc(-c4cccc(Cl)c4)cc3)N[C@@](CC(C)C)(C(=O)OC)[C@H]2C1=O,-5,-0.7,·,i,0,2.2,-1.8
O=c1[nH]c2ccccc2nc1/C=C/c1ccc(Cl)cc1,-5,-3.9,·,i,0,2.9,-0.3
Cc1ccc(/C=C/C(=O)OCC(=O)Nc2ccc3[nH]c(=O)[nH]c3c2)o1,10,3.6,0.63,i,0,4.1,-2.7
COc1cc(/C=C/C(=O)c2cccc([N+](=O)[O-])c2)cc(OC)c1OC,96*,2.6,0.68,i,52*,-3.8,2.1
O=C(CNC(=O)C(c1ccccc1)c1ccccc1)N/N=C\c1cccc(O)c1,9,·,·,·,-4,94*,6.2
CN(C)Cc1c(C(=O)N/N=C/c2cccc(OCc3c(F)cccc3Cl)c2)nnn1-c1nonc1N,3,·,·,i,11,-5.5,4.3

# Part of the list above, tab-delimited.
canonical_smiles	ALR H2O2 inh	UCH37 inh	E coli growth	FGF22 binding	Beta2AR agonist	LANA-H2A inh	HNF4A DNA FP
O=C(Nc1cccnc1)c1ccc(Br)c(S(=O)(=O)N2CCCC2)c1	-8	4.5	0.7	i	-2	3.1	-0.1
Cn1ncc2c(Nc3ccccc3Br)ncnc21	-7	5.3	0.73	·	0	-8.6	5.2
N#C/C(=C\c1ccc(O)c(O)c1)C(=O)N1CCc2ccccc21	99*	0.4	·	i	-3	-0.1	2.2
Cc1ccc(/C=C/C(=O)OCC(=O)Nc2ccc3[nH]c(=O)[nH]c3c2)o1	10	3.6	0.63	i	0	4.1	-2.7
O=C(CNC(=O)C(c1ccccc1)c1ccccc1)N/N=C\c1cccc(O)c1	9	·	·	·	-4	94*	6.2

# LANA-H2A inh, hit marks shown above.
SMILES,ALR H2O2 inh,UCH37 inh,E coli growth,FGF22 binding,Beta2AR agonist,LANA-H2A inh,HNF4A DNA FP
O=C(CCN1C(=O)CSc2ccccc21)Nc1ccc(OC(F)(F)F)cc1,4,2.9,0.69,i,7,+,-4.2
O=C(CNC(=O)C(c1ccccc1)c1ccccc1)N/N=C\c1cccc(O)c1,9,·,·,·,-4,94*,6.2

# Later entries.
SMILES,ALR H2O2 inh,UCH37 inh,E coli growth,FGF22 binding,Beta2AR agonist,LANA-H2A inh,HNF4A DNA FP
CN1C(=O)C(O)(CC(=O)/C=C\c2ccc3c(c2)OCO3)c2ccccc21 (stereo unspecified),22,1.6,0.69,i,4,-0.6,-1.0
C=CCNC(=O)/C(C#N)=C/c1ccccc1OCc1ccc(C(=O)OC)cc1,-5,-0.1,0.74,i,1,-11,-2.8
COc1cccc(N2CC(C(=O)Nc3nnc(SCC(=O)Nc4cc(C)on4)s3)CC2=O)c1 (stereo unspecified),-8,-1.4,0.73,i,0,-0.8,3.4
COc1ccccc1C(=O)Nc1ccc(S(=O)(=O)Nc2cc(C)nc(C)n2)cc1,-6,6.0,0.69,·,10,4.7,-1.6
